From PubChem
KSHV LANA nucl: inhibitors of KSHV LANA binding to nucleosomes | FITC-LANA1-23 / chicken nucleosome fluorescence polarization; active compounds read low | z-score (no concentration beside the values) | 0.3% of 51,000 active;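 active = both repeat wells score below -2 in polarization z-score versus plate sample wells, excluding overly bright wells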;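 also: 100 nL library stock added to about 30 µL; numbers are from one replicate; some results filed as inactive read as strong as hits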
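test system = FITC-LANA peptide and chicken nucleosomes | amount = 240 nM purified chicken nucleosomes (480 nM peptide binding sites), final | reagent = 50 nM FITC-LANA1-23 probe | medium = TEN-BT buffer, pH 7.5 | doses = single compound addition by pin transfer, 100 nL per well | timing = 10–45 min, room temperature | detection = fluorescence polarization | repeats = duplicate plates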
BasE inh: blocks the Acinetobacter baumannii siderophore enzyme BasE; 0.1% of 84,000 active; AID 485350; purified BasE, fluorescence polarization binding displacement; inhibition, % (concentration not given with the values);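 active = both replicates above 25% with normal brightness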;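 also: 0% = negative plate control signal and 100% = positive plate control signal; stock transfer was 100 nL into about 30 µL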
* marks the source's active call; other numbers are inactive results.

COc1cccc(-c2ccc(SCC(=O)N3CCOCC3)nn2)c1 was read as KSHV LANA nucl -0.61 and BasE inh -0.3.
CCn1c(SCCc2ccccc2)nnc1-c1nnc(SCCc2ccccc2)n1CC was read as KSHV LANA nucl 1.3 and BasE inh -0.5.
CCOCCOCCOCCOCCOCCOCCOCCOCCOCCO (tested in a mixture with another compound) was read as KSHV LANA nucl -0.95.
`COC(=O)c1ccc2c(=O)[nH]c(COC(=O)/C=C/c3ccc(S(=O)(=O)NCc4ccco4)cc3)nc2c1` gave BasE inh -1.8.
`CCN1CCN(C(=O)C(C)Sc2nnc(-c3ccncc3)n2-c2ccccc2C)CC1` (stereo not given) gave BasE inh 0.5.
Cc1ccc(C2C3=C(CC(C)(C)CC3=O)OC3=C2C(=O)CC(C)(C)C3)o1 was read as KSHV LANA nucl 0.64 and BasE inh -0.8.
`Cc1csc(N)c1C#N` gave KSHV LANA nucl -0.25 and BasE inh 4.5.
Screening Cn1cccc1C1Nc2ccccc2NC2=C1C(=O)CC(C)(C)C2 (stereo not given) returned KSHV LANA nucl -0.11 and BasE inh 3.8.
`Cc1ccc2nc(Cn3cc(S(=O)(=O)N4CCCC4)ccc3=O)cn2c1` gave BasE inh 4.0.
Screening CCSC1=NSC2=NC(=O)/C(=C\c3cccnc3)C(=N)N12 returned KSHV LANA nucl 0.72 and BasE inh -13.
For O=C(O)CCNc1cc(Cl)ccc1Oc1ccc(Cl)cc1 the results were BasE inh 12.
`Cc1c(SCCO)c(=O)[nH]c2cc3c(cc12)OCO3` gave KSHV LANA nucl -0.95 and BasE inh 3.4.
`Cc1ccc(C)n1-c1ccc(C(=O)Nc2nccs2)cc1` gave BasE inh 2.0.
`O=C(Nc1ccccc1)Nc1cccc2nsnc12` gave KSHV LANA nucl -0.99 and BasE inh 1.6.
Screening CN(C)c1ccc(NC(=O)c2ccc(Cl)cc2)cc1 returned KSHV LANA nucl 0.28.
For Cc1ccc(NC(=O)C(c2ccccc2)N2CCCN(S(=O)(=O)c3c(C)noc3C)CC2)cc1 (stereo not given) the results were BasE inh 2.5.
For NC(=O)Nc1ccc2[nH]ncc2c1 the results were BasE inh 7.8.
For CC(C)c1ccc(N=C=S)cc1 the results were BasE inh -2.0.
For Cc1nc2sccn2c(=O)c1S(=O)(=O)NCC1CCN(Cc2ccc(Cl)cc2)CC1 the results were KSHV LANA nucl -1.1 and BasE inh -0.7.
For CCOc1cc(-c2nnc(-c3ccco3)o2)cc(OCC)c1OCC the results were KSHV LANA nucl 3.3 and BasE inh -0.2.
For Cc1ccc(-c2n[nH]c(=S)n2CC(=O)O)cc1 the results were BasE inh 1.1.
Screening Cc1ccc(S(=O)(=O)N(CC(=O)NCc2ccccc2)C(=O)N2CCN(C)CC2)cc1 returned KSHV LANA nucl -0.2 and BasE inh -0.3.
Screening CC(C)(C)C(=O)OCN1N=CN(Cc2ccccc2)C=C1SC#N returned BasE inh -0.2.
S=C(NC12CC3CC(CC(C3)C1)C2)N1CCOCC1 was read as KSHV LANA nucl -0.11 and BasE inh 2.7.
`Cc1[nH]n(-c2ccccc2)c(=O)c1/C=N/N1CCOCC1` gave KSHV LANA nucl -0.029 and BasE inh -2.5.
For Cc1cc(C(=O)COC(=O)C2=COCCO2)c(C)n1-c1ccccc1 the results were BasE inh -1.9.
`CC(C)(CC(=O)O)Cc1nc2ccccc2c(=O)[nH]1` gave KSHV LANA nucl 0.27 and BasE inh 1.6.
For C=CCNc1nc(C(=O)OC2CCCCC2=O)cs1 (stereo not given) the results were BasE inh -1.9.
For COc1ccc(CNC(C)C(=O)NCc2ccc3c(c2)OCO3)cc1OC (stereo not given) the results were BasE inh 0.8.
Cc1cc(NC(=O)c2cc3c(CO)cnc(C)c3oc2=N)ccc1Br was read as KSHV LANA nucl 0.32 and BasE inh -0.8.
Screening CC(CC(=O)NCc1cccs1)CC1=NS(=O)(=O)c2ccccc2N1 (stereo not given) returned KSHV LANA nucl 0.55 and BasE inh -2.0.
`CCCc1cc(=O)[nH]c(SCC(=O)N2CCN(S(=O)(=O)c3ccccc3)CC2)n1` gave BasE inh 3.2.
O=C(Nc1cc(C(=O)N2CCOCC2)ccc1N1CC2CC(C1)c1cccc(=O)n1C2)c1ccc(Br)o1 (stereo not given) was read as KSHV LANA nucl -0.94 and BasE inh 0.3.
`CC1CCc2nc(NC(=S)NCc3ccco3)sc2C1` (stereo not given) gave KSHV LANA nucl 0.35 and BasE inh 1.4.
Screening CS(=O)(=O)c1cccc(C(=O)Oc2ccccc2)c1 returned BasE inh 0.8.
For O=C(NCCC1=CCCCC1)c1c(O)nc2ccccn2c1=O the results were KSHV LANA nucl 0.18 and BasE inh -2.5.
Screening Cc1sc2nc(CSC(C)C(=O)Nc3ccc(N4CCN(C)CC4)cc3)[nH]c(=O)c2c1C (stereo not given) returned BasE inh 4.0.
Screening Cc1c(Br)cc(C(=O)N2CCCC2)c(C)c1C returned KSHV LANA nucl -1.5 and BasE inh 0.0.
Screening Cc1ccc(NC(=O)OC2COC3C(OC(=O)Nc4ccc(C)cc4)COC23)cc1 (stereo not given) returned BasE inh 2.4.
For Cc1nn(-c2ccccc2)c2[nH]c(=O)c(CNCc3cccnc3)cc12 the results were KSHV LANA nucl -0.97 and BasE inh -0.1.
`c1ccc(-n2ncc3c(N4CCc5ccccc54)ncnc32)cc1` gave BasE inh 8.0.
`CCOC(=O)Cn1cnc2scc(-c3ccccc3)c2c1=O` gave KSHV LANA nucl 0.36 and BasE inh -3.3.
Screening C=CCNC(=O)c1c(N)n(-c2ccc(C)cc2)c2nc3ccccc3nc12 returned BasE inh 3.5.
Cc1ccc(OCC(=O)Nc2ccc3c(c2)OCO3)c(C(=O)c2cc(C#N)c(=O)n(C3CC3)c2)c1 was read as BasE inh -2.2.
Screening O=C(Nc1cccc(Cl)c1)Nc1ccccc1N1CCCCC1 returned BasE inh 2.5.
`CSc1nc(-c2cccnc2)nc(-c2ccc(OC(F)(F)F)cc2)c1C#N` gave BasE inh -0.6.
N/C(Cc1cccs1)=N\OC(=O)c1ccccc1 was read as KSHV LANA nucl 1.1.
`CC1Cc2ccccc2N1C(=O)CSc1nc(N)cc(N)n1` (stereo not given) gave KSHV LANA nucl 0.29 and BasE inh 0.7.
`Cc1nc(-c2ccccc2)cc(=O)[nH]1` gave KSHV LANA nucl 1.6 and BasE inh -3.7.
For COCCCn1cnnc1SCC(=O)Nc1ccc(C)c(C)c1 the results were BasE inh -1.6.
Screening CS(=O)(=O)N1CCc2cc(C(=O)N3CCCc4ccccc43)ccc21 returned KSHV LANA nucl -0.54 and BasE inh 0.7.
Screening CC(C)Sc1nnc2oc3ccc(S(=O)(=O)N(C)C)cc3n12 returned BasE inh -0.1.
CC(=O)N1c2ccccc2Oc2cc3ccccc3cc21 was read as KSHV LANA nucl 0.46 and BasE inh -2.8.
Screening O=C(O)CC(CP(c1ccccc1)c1ccccc1)C(=O)O (stereo not given) returned KSHV LANA nucl 0.41 and BasE inh -0.6.
Screening O=C(c1ccccc1)N1CCCC(C(=O)N2CCC(Cc3ccccc3)CC2)C1 (stereo not given) returned BasE inh -5.0.
For OC(CCN1CCN(C(c2ccccc2)c2ccccc2)CC1)C(F)(F)C(F)(F)F (stereo not given) the results were KSHV LANA nucl -0.67.
For COC(=O)c1cc2sc(C)cc2n1CC(=O)NCCc1ccccc1 the results were KSHV LANA nucl -1.6 and BasE inh -0.6.
COC(=O)CNS(=O)(=O)c1ccc(Oc2ccc(S(=O)(=O)NCC(=O)OC)cc2)cc1 was read as KSHV LANA nucl -1.4 and BasE inh 2.6.
CN(CCC#N)C(=O)c1cc(Cl)ccc1Cl was read as KSHV LANA nucl 0.77 and BasE inh 1.9.
`Cc1cc(NC(=O)NCc2ccccc2)c(C(F)(F)F)o1` gave BasE inh 0.2.
`COc1ccc(NC(=S)NC2CC(C)(C)NC(C)(C)C2)cc1` gave BasE inh 1.5.
C/C(=N/NC(N)=O)C1(O)CCCCC1 was read as KSHV LANA nucl 0.12 and BasE inh -1.9.
Screening Cc1nn(CCc2nc(-c3ccco3)cs2)c2nc(-c3cccs3)cc(C(F)(F)F)c12 returned BasE inh 0.0.
For CSc1ccccc1NC(=O)CCn1c(=O)sc2ccccc21 the results were KSHV LANA nucl -0.18 and BasE inh -0.1.
For CN(C(=O)Cn1cnc2c(cnn2C)c1=O)C1CCCCC1 the results were BasE inh -2.5.
`Cn1nc(C(C)(C)C)cc1C(=O)Nc1ccc(C(C)(C)C)cc1` gave KSHV LANA nucl -1.8.
Screening Nc1cc(C(=O)O)cc(C(=O)O)c1 returned BasE inh 1.8.
Cc1c(C(=O)N2CCCC2)c(S(=O)(=O)N(C)Cc2ccccc2)c(C)n1C was read as KSHV LANA nucl -0.074 and BasE inh 3.9.
CC(=O)Oc1ccc(-c2csnn2)cc1 was read as KSHV LANA nucl -0.6 and BasE inh 1.6.
`CC(C)C(=O)Nc1sc2c(c1C(N)=O)CCCC2` gave KSHV LANA nucl 0.02 and BasE inh 3.1.
Screening Nc1nccc(-c2ccc(Oc3ccc(Cl)cc3)cc2Cl)n1 returned KSHV LANA nucl -1.4.
Screening CC(=O)N1CC(C(=O)Nc2cccc(-c3nnc4n3CCCCC4)c2)Oc2ccccc21 (stereo not given) returned BasE inh 2.7.
For CC(=O)Nc1ccccc1OCC(=O)N(C1CCCCC1)C1CCCCC1 the results were BasE inh 2.9.
CN(C)C(=O)CSc1nc2ccccc2s1 was read as BasE inh 0.8.
Screening CCN(CC)c1ccc2c(c1)OC(N)=C(C#N)C2c1cccc(F)c1 (stereo not given) returned KSHV LANA nucl 2 and BasE inh -5.4.
`COC(=O)C1(C)Cc2ccc(Br)cc2C(=O)O1` (stereo not given) gave KSHV LANA nucl -0.029 and BasE inh 1.3.
Screening Cc1onc2c(=O)[nH]nc(-c3ccccc3)c12 returned KSHV LANA nucl 0.43 and BasE inh 4.6.
For CN(C)c1ccc(/C=N/NC2=NCCN2)cc1 the results were KSHV LANA nucl 1.3 and BasE inh -7.6.
For O=[N+]([O-])O[C@@H]1CO[C@H]2[C@@H]1OC[C@@H]2O the results were KSHV LANA nucl 1.2.
Screening NNC(=O)c1nn(-c2ccccc2)c(=O)c2c(N)scc12 returned KSHV LANA nucl 1.4 and BasE inh 6.4.

Fetched by compound from the entries so far:
For CC(=O)Nc1ccccc1OCC(=O)N(C1CCCCC1)C1CCCCC1 the results were BasE inh 2.9.
Screening Nc1cc(C(=O)O)cc(C(=O)O)c1 returned BasE inh 1.8.
For O=[N+]([O-])O[C@@H]1CO[C@H]2[C@@H]1OC[C@@H]2O the results were KSHV LANA nucl 1.2.
Screening CCN(CC)c1ccc2c(c1)OC(N)=C(C#N)C2c1cccc(F)c1 (stereo not given) returned KSHV LANA nucl 2 and BasE inh -5.4.
Screening NNC(=O)c1nn(-c2ccccc2)c(=O)c2c(N)scc12 returned KSHV LANA nucl 1.4 and BasE inh 6.4.
`COC(=O)C1(C)Cc2ccc(Br)cc2C(=O)O1` (stereo not given) gave KSHV LANA nucl -0.029 and BasE inh 1.3.
For CN(C)c1ccc(/C=N/NC2=NCCN2)cc1 the results were KSHV LANA nucl 1.3 and BasE inh -7.6.

Other compounds:
CCCOc1ccc(C2C(C(=O)/C=C/c3ccco3)=C(O)C(=O)N2CCCN2CCOCC2)cc1 (stereo not given) was read as KSHV LANA nucl 1.1 and BasE inh 0.0.
For CC1(C)CC(=O)c2cc(C#N)c(=O)n(-c3ccccc3)c2C1 the results were KSHV LANA nucl -0.071 and BasE inh -2.1.
Cc1noc(C)c1CC(C#N)(Cc1c(C)noc1C)c1nc2ccccc2s1 was read as BasE inh 0.5.
Screening CC1CC(C)CN(S(=O)(=O)c2ccc(C(=O)Nc3nnc(-c4ccccn4)o3)cc2)C1 (stereo not given) returned KSHV LANA nucl 0.3 and BasE inh -1.7.
NC(=O)C12CCCC(CCC1)C2 was read as KSHV LANA nucl -0.51 and BasE inh 1.5.
c1ccc(-c2nnc(COc3ncnc4sccc34)o2)cc1 was read as BasE inh -2.0.
`c1ccc(-c2nc(-c3cccnc3)n[nH]2)nc1` gave BasE inh 1.2.
Screening COc1cc(OC)cc(-c2nc(NC(=O)c3cccc(N4C(=O)NC5CC4(C)Oc4ccccc45)c3)n[nH]2)c1 (stereo not given) returned KSHV LANA nucl 0.14 and BasE inh 1.6.
Screening CN1C(=S)NNC(=O)c2cc(Cl)ccc21 returned KSHV LANA nucl 0.27 and BasE inh -0.2.
For N#CC1=C(SCC(=O)Nc2cc(Cl)ccc2C#N)NC2=C(C(=O)CCC2)C1c1cccnc1 (stereo not given) the results were BasE inh -4.9.
CCCCNc1c2c(nc3ccccc13)CC(C)(C)CC2O (stereo not given) was read as KSHV LANA nucl -0.64 and BasE inh -1.8.
For Cc1ccc(Oc2nnc(-c3cccs3)c3ccccc23)cc1 the results were BasE inh 0.2.
For COc1ccccc1/C=C/C(=O)OCC(=O)N1CCCCC1 the results were BasE inh 0.9.
Screening COC(=O)c1nnc2nc(-c3ccc(Cl)cc3)cc(C)n12 returned BasE inh 1.9.
Screening CCCn1c(-c2ccncc2)n[nH]c1=S returned KSHV LANA nucl -0.12 and BasE inh 3.1.
Screening O=c1cc(O)c2ccccc2n1Cc1ccccc1F returned KSHV LANA nucl -1.1 and BasE inh 0.2.

Of the compounds above, these contain bromine.
Cc1cc(NC(=O)c2cc3c(CO)cnc(C)c3oc2=N)ccc1Br was read as KSHV LANA nucl 0.32 and BasE inh -0.8.
O=C(Nc1cc(C(=O)N2CCOCC2)ccc1N1CC2CC(C1)c1cccc(=O)n1C2)c1ccc(Br)o1 (stereo not given) was read as KSHV LANA nucl -0.94 and BasE inh 0.3.
Screening Cc1c(Br)cc(C(=O)N2CCCC2)c(C)c1C returned KSHV LANA nucl -1.5 and BasE inh 0.0.
`COC(=O)C1(C)Cc2ccc(Br)cc2C(=O)O1` (stereo not given) gave KSHV LANA nucl -0.029 and BasE inh 1.3.

Some of the compounds tested; the hit share may differ from the screen's.
